N370S GC mod: qHTS Assay for Inhibitors and Activators of N370S glucocerebrosidase as a Potential Chaperone Treatment of Gaucher Disease | Lysosomal acid glucosylceramidase (Homo sapiens), P04062 | N370S GC spleen homogenate, 4MU-glucoside fluorescence | Potency, µM (top dose mostly 59.4 µM), without a hit: top-dose activity change, negative = inhibition, actives largely listed as inhibitors | 0.092% of 330,000 active;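 note: 0% = full enzyme activity and -100% = no enzyme basal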
GCN5L2 inh: qHTS Assay for Inhibitors of GCN5L2. 0.21% of 390,000 active. GCN5L2 HAT assay, ThioGlo1 CoA-SH fluorescence. Potency, µM (doses to about 58.9 µM), for the others: at the highest dose activity change, negative = inhibition, hits mostly inhibitors. Histone acetyltransferase KAT2A (Homo sapiens), Q92830
Target sequence (Q92830 whole entry, looked up): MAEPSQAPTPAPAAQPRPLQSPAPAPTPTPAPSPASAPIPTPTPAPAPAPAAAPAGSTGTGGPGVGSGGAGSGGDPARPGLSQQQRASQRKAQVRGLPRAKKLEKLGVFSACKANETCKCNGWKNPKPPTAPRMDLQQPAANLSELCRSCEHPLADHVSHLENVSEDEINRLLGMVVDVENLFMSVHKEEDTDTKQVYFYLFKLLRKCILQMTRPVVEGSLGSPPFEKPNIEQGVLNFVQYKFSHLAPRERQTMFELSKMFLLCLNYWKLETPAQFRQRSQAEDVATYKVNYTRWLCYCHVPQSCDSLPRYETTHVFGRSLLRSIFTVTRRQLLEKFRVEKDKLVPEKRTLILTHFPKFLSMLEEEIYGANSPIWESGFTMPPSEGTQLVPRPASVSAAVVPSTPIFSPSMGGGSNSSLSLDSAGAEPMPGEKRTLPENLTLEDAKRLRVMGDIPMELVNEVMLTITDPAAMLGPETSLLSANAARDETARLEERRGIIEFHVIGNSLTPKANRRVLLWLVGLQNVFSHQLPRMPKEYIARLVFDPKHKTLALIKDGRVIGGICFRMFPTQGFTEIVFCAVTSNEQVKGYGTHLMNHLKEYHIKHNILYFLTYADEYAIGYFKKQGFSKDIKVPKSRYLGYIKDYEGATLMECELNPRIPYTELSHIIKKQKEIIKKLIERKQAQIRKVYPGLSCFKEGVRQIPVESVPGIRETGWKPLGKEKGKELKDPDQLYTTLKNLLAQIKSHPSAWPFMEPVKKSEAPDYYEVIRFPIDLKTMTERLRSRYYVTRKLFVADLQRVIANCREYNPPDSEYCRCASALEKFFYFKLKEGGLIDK
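Enzyme at 20nM final was mixed with library compounds for 15 min at room temperature. Peptide H3(1-25) at 75uM, acetyl-CoA at 70uM and ThioGlo1 at 50uM were then added. Plates were read immediately and after 20 min (Ex340nm/Em540nm).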
* hit, by the source's call; ? = inconclusive; . = not tested or not shown; & = joins results of further samples; [ ] = remark or other dose. Calls come from the whole dose curve; as a rule, active = well fitted curve in the direction sought with a large enough effect; inconclusive = small, poorly fitted or top-dose-only effect, or another doubt; inactive = no such curve, though single readings can be large; an effect the other way counts as inactive or inconclusive. Unless noted, % is set by controls: 0 for no effect and ±100 for the full control effect; potency is the fitted concentration of half-maximal effect. A portion of the library, and most or all hits are left out here.

Every second line gives: N370S GC mod, GCN5L2 inh
Cc1cc(C)cc(CSc2nnc(C)c(=O)[nH]2)c1
  3.6%, -3.1%
O=C(CSc1ccc(Br)cc1)NCC(c1ccco1)N1CCCCC1 (stereo not drawn)
  1.0%, -0.8%
O=C(CN1C(=O)c2ccccc2S1(=O)=O)N1CCOCC1
  2.6%, -13.8%
O=C(c1ccccc1)c1ccc(OC(=O)N2CCOCC2)cc1
  -0.5%, -1.3%
Cc1c(NC(=O)c2ccc3c(c2)OCO3)c(=O)n(-c2ccccc2)n1C
  2.2%, -13.5%
O=C(COc1ccccc1)NCC(=O)N/N=C/c1ccc(Cl)cc1
  -3.8%, -7.2%
COc1ccc(/C=C/C(=O)C2C(=O)C=C(C)OC2=O)cc1O (stereo not drawn)
  -29.6%, -7.1%
CCc1c(C(=O)Nc2ccc(C)c(C)c2)[nH]c(C)c1C(C)=O
  2.0%, -6.7%
O=C(CCNS(=O)(=O)c1ccc(Br)cc1)NCc1ccc(F)cc1
  5.9%, -6.4%
Cc1c(C(=O)Nc2cccc(F)c2)cnn1-c1ccccc1
  0.8%, -2.6%
CC1(C)Oc2ccc3ccc(=O)oc3c2C(N2CCCCC2)C1O (stereo not drawn)
  3.3%, -22.4%
COc1ccc(CNC(=O)C2CCN(S(=O)(=O)N3CCOCC3)CC2)cc1
  6.4%, -28.0%
N#C/C(C(=O)N1CCCCC1)=C1/N=C(N)c2ccccc21
  -6.4%, -3.4%
O=C1C2C3C=CC(C4CC34)C2C(=O)N1/N=C/c1ccc(-c2ccc(Cl)cc2[N+](=O)[O-])o1 (stereo not drawn)
  1.7%, -19.3%
Cc1ccc(C)n1-c1ccc(C(=O)NN=C2CCCC2)cc1
  3.4%, -5.0%
CC(C)(C)c1nnc(N/N=C/c2ccccc2)n(N)c1=O
  -5.2%, -4.7%
CCCn1nnnc1NCc1ccccc1OCc1ccc(F)cc1
  2.2%, 1.8%
Cc1cccc(CSCCNC(=O)CSCc2ccc([N+](=O)[O-])cc2)c1
  11.5%, -5.0%
Cc1ccsc1/C=C1/NC(=O)N(Cc2ccc(F)cc2)C1=O
  21.3%, -5.7%
CCCC(=O)Nc1ccc(OC[C@@H](O)CNC(C)C)c(C(C)=O)c1
  3.0%[21.6 µM], 1.1%[21.4 µM]
CS(=O)(=O)N1CCN(Cc2ccccc2C(F)(F)F)CC1
  3.2%, -6.4%
O=C(Nc1ccccc1F)N1CCC(NC(=O)C23CC4CC(CC(C4)C2)C3)CC1
  1.5%, -4.6%
COc1cccc(C(=O)Nc2nc(-c3nnn(-c4cc(C)ccc4C)c3C)ns2)c1
  ., -3.2%
Cc1ccc(C(c2cc(Cl)c3cccnc3c2O)N2CCN(C)CC2)cc1 (stereo not drawn)
  -0.7%, 31.6µM*
COc1cc(OC)c(NC(=O)Cc2ccc(OC)c(S(=O)(=O)N3CCOCC3)c2)cc1Cl
  4.5%, -2.1%
CCNC(=O)C1CCN(S(=O)(=O)c2ccc3c(c2)CCCN3C(C)=O)CC1
  ., -3.9%
COc1ccc(C2c3c(oc4ccccc4c3=O)C(=O)N2CC2CCCO2)cc1 (stereo not drawn)
  23.1%, -1.7%
Cc1cc(S(=O)(=O)N2CCCCC2CCNC(=O)C(=O)NC2CC2)ccc1F (stereo not drawn)
  -0.5%, 0.0%
O=C(CCl)NCCNC(=O)c1cc(OCC(F)(F)F)ccc1OCC(F)(F)F
  3.2%, -5.0%
CCc1cc(C(=O)N2CCCC(CNC(=O)c3ccc(-c4ccccc4)cc3)C2)no1 (stereo not drawn)
  ?, -0.7%

19 neighbouring entries already listed, for reference:
Every second line gives: N370S GC mod, GCN5L2 inh
Cc1c(C(=O)Nc2cccc(F)c2)cnn1-c1ccccc1
  0.8%, -2.6%
CC1(C)Oc2ccc3ccc(=O)oc3c2C(N2CCCCC2)C1O (stereo not drawn)
  3.3%, -22.4%
COc1ccc(CNC(=O)C2CCN(S(=O)(=O)N3CCOCC3)CC2)cc1
  6.4%, -28.0%
N#C/C(C(=O)N1CCCCC1)=C1/N=C(N)c2ccccc21
  -6.4%, -3.4%
O=C1C2C3C=CC(C4CC34)C2C(=O)N1/N=C/c1ccc(-c2ccc(Cl)cc2[N+](=O)[O-])o1 (stereo not drawn)
  1.7%, -19.3%
Cc1ccc(C)n1-c1ccc(C(=O)NN=C2CCCC2)cc1
  3.4%, -5.0%
CC(C)(C)c1nnc(N/N=C/c2ccccc2)n(N)c1=O
  -5.2%, -4.7%
CCCn1nnnc1NCc1ccccc1OCc1ccc(F)cc1
  2.2%, 1.8%
Cc1cccc(CSCCNC(=O)CSCc2ccc([N+](=O)[O-])cc2)c1
  11.5%, -5.0%
Cc1ccsc1/C=C1/NC(=O)N(Cc2ccc(F)cc2)C1=O
  21.3%, -5.7%
CCCC(=O)Nc1ccc(OC[C@@H](O)CNC(C)C)c(C(C)=O)c1
  3.0%[21.6 µM], 1.1%[21.4 µM]
CS(=O)(=O)N1CCN(Cc2ccccc2C(F)(F)F)CC1
  3.2%, -6.4%
O=C(Nc1ccccc1F)N1CCC(NC(=O)C23CC4CC(CC(C4)C2)C3)CC1
  1.5%, -4.6%
COc1cccc(C(=O)Nc2nc(-c3nnn(-c4cc(C)ccc4C)c3C)ns2)c1
  ., -3.2%
Cc1ccc(C(c2cc(Cl)c3cccnc3c2O)N2CCN(C)CC2)cc1 (stereo not drawn)
  -0.7%, 31.6µM*
COc1cc(OC)c(NC(=O)Cc2ccc(OC)c(S(=O)(=O)N3CCOCC3)c2)cc1Cl
  4.5%, -2.1%
CCNC(=O)C1CCN(S(=O)(=O)c2ccc3c(c2)CCCN3C(C)=O)CC1
  ., -3.9%
COc1ccc(C2c3c(oc4ccccc4c3=O)C(=O)N2CC2CCCO2)cc1 (stereo not drawn)
  23.1%, -1.7%
Cc1cc(S(=O)(=O)N2CCCCC2CCNC(=O)C(=O)NC2CC2)ccc1F (stereo not drawn)
  -0.5%, 0.0%

Remaining list, next part:
Every second line gives: N370S GC mod, GCN5L2 inh
Cc1ccc(OCc2cc(C(=O)NCC(C)c3ccccc3)no2)cc1C (stereo not drawn)
  2.7%, ?
COC(=O)c1ccccc1-n1c(CCC(=O)O)ccc1-c1ccc(F)cc1
  1.2%, 0.9%
CC1Cn2c(nnc2C23CC4CC(CC(C4)C2)C3)S1 (stereo not drawn)
  4.3%, 2.9%
CCCOc1ccc(-c2c(C(=O)N/N=C/c3ccc(C)o3)nnn2-c2nonc2N)cc1
  29.1%, -5.6%
O=C(COc1ccc(Cl)cc1)NCCNC(=O)c1cnccn1
  6.0%, 2.2%
CCCCCCn1c(=O)[nH]c2c(c1=O)CCC2
  4.9%, -11.6%
COCCn1c(SCC(=O)Nc2ccc(F)cc2)nc2c([nH]c3ccccc32)c1=O
  3.3%, -3.0%
CCCCNC(=O)NNc1nc(Cl)cc(C)c1C#N
  1.1%, -12.0%
CCOC(=O)Cc1nnc(NC(=O)C23CC4CC(CC(C4)C2)C3)s1
  6.8%, -16.0%
Cc1nc2ccc(C(=O)Nc3ccc4nc[nH]c4c3)cc2[nH]1
  -17.3%, -0.1%
CCCCCC(=O)Nc1c(-c2cccs2)c(=O)c2ccccc2n1C
  19.9%, -11.8%
CSCC[C@H](NC(=O)C1CCN(S(=O)(=O)c2ccc(C)cc2)CC1)C(=O)NCc1ccco1
  7.5%, -3.2%
Cc1ccc(CC(SCc2ccccc2)C(=O)O)cc1C (stereo not drawn)
  -6.2%, -6.8%
Cc1cc2oc(=O)cc(Cn3ccnc3)c2cc1O
  -6.3%, -0.6%
COc1ccccc1CNC(=O)c1cc(S(=O)(=O)N2CCOCC2)cn1C
  -2.3%, -10.5%
CC(C)CCn1c(N2CCCC2)nc2c1c(=O)[nH]c(=O)n2C
  -15.9%, -2.4%
CCc1ccccc1N1C(=O)CC(Sc2nccc(C)n2)C1=O (stereo not drawn)
  -0.1%, 0.0%
O=C1/C(=C/c2ccc([N+](=O)[O-])cc2)Oc2cc(O)ccc21
  -8.3%, -4.3%
COc1ccc2[nH]c3c(c2c1)CCN1C(=O)C(CC(=O)NCCC2=CCCCC2)C[C@H](C(=O)N2CCOCC2)[C@@]31C (stereo partly drawn)
  ., -1.5%
O=C(CONS(=O)(=O)c1ccc(Cl)cc1)NCCNc1ncc(C(F)(F)F)cc1Cl
  -2.5%, -6.5%
O=C(Nc1ccnn1C1CCN(Cc2ccc(CO)o2)CC1)c1ccccc1
  -13.4%, -13.2%
Cc1ccc(-c2nc3cc(N)ccc3o2)cc1Br
  -7.4%, -4.4%
CN(C(=O)CN1C(=O)S/C(=C\c2ccc(F)cc2)C1=O)C1CCS(=O)(=O)C1 (stereo not drawn)
  -7.8%, -2.5%
CCCCNC(=O)CSc1nc(CCC)nc2ccccc12
  21.5%, 0.2%
CCOc1ccc(-c2cc3nc(C4CCN(C(=O)OC(C)(C)C)CC4)c(C(=O)Nc4cc(OC)ccc4OC)cn3n2)cc1
  ., -13.2%
O=[N+]([O-])c1ccc(N=Nc2ncc[nH]2)cc1
  -1.0%, -23.2%
CCOC(=O)c1cnc(SCC(=O)Nc2nc(C)c(C)s2)nc1N
  6.3%, -10.1%
CCOC(=O)Nc1sc2c(c1C#N)CCC(C)C2 (stereo not drawn)
  ?, -0.8%
O=C(CCc1ccccc1)N1CCN(Cc2ccc(F)cc2Cl)CC1
  -2.3%, 1.5%
CCOC(=O)c1nn(-c2ccc(Cl)cc2)c(=O)c(C#N)c1C
  -14.2%, 1.6%

Further compounds:
Every second line gives: N370S GC mod, GCN5L2 inh
Cc1ccc(C(C)NC(=O)C23CC4CC(CC(C4)C2)C3)cc1 (stereo not drawn)
  6.3%, -1.2%
O=C(CCCNC(=O)c1ccc(Cl)cc1)Nc1ncccc1O
  -10.8%, -0.1%
COc1ccc(NC(=O)C2=C(C)Nc3c(C(=O)Nc4ccc(C)cc4)cnn3C2c2cc(OC)ccc2OC)cc1 (stereo not drawn)
  ., 3.0%
CCCC(=O)Nc1ccc(C(=O)NNC(=O)c2cccc([N+](=O)[O-])c2)cc1
  10.4%, 0.5%
COc1cc2cc(C(=O)N/N=C/c3ccc(F)cc3)[nH]c2cc1OC
  14.6%, -12.1%
O=c1[nH]c2cc([N+](=O)[O-])c([N+](=O)[O-])cc2[nH]c1=O
  8.91µM*, -2.3%&3.1%
COc1ccc(NC(=O)CN(C)C(=O)/C=C/c2cn(-c3ccccc3)nc2-c2ccc(F)cc2)cc1
  -22.6%, -10.4%
O=C(CCC(=O)c1cccs1)OCC(=O)N1CCN(C(=O)c2ccco2)CC1
  0.1%, -1.9%
Cc1ccc2nc(SCC(=O)c3cc(C)n(C)c3C)[nH]c2c1
  11.1%, -3.5%
N=c1n(Cc2ccccc2)c2ccccc2n1CC(O)c1ccco1 (stereo not drawn)
  11.3%, -5.9%
O=C(N=c1nc2ccccn2s1)c1ccccc1
  -2.5%, -8.1%
CC(C)=CCCC(C)CN1CCC(N2CCC(C(=O)N3CCCC3)CC2)CC1 (stereo not drawn)
  -14.7%, 1.4%
CCn1nc(C)c(CCN(C)C(=O)Nc2cc(Cl)ccc2C)c1C
  ., 2.5%
COC(=O)CCCCCCCCC(O)CN1CCCCC1 (stereo not drawn)
  -4.1%, -2.9%
COCc1ccc(CN2CCC(CO)(CC3CCCCO3)CC2)o1 (stereo not drawn)
  -4.0%, 1.9%
COc1ccc(NC(=O)CN(C)S(=O)(=O)c2cccc3cccnc23)cc1
  6.9%, -21.0%
Cc1ccc(C(=O)N(CCN2CCCCC2)CC2CCCN(C3CCCC3)C2)s1 (stereo not drawn)
  -3.4%, -16.2%
CCOC(=O)c1cc2c(=O)n3ccccc3nc2n(CC2CCCO2)c1=NC(=O)c1cccc(C(F)(F)F)c1 (stereo not drawn)
  ., -2.6%
O=C(CNC1CCCC1)Nc1ccc(N2CCCCCC2)cc1
  -4.7%, 2.8%
CCCCN(CC)C(=O)c1ccc(Cl)c(Cl)c1
  3.8%, -0.3%
COc1ccc(NC(=O)c2nn(C)c3c2CS(=O)(=O)c2ccccc2-3)cc1Cl
  ., -5.1%
COc1ccc(CNC(=O)CCCn2nc(C)c([N+](=O)[O-])c2C)cc1OC
  2.9%, -5.1%
CNC(=S)NNC(=O)c1ccc2c(c1)OCO2
  -3.9%, -2.1%
O=C(/C=C/Nc1ccc(F)cc1)c1ccc(Br)cc1
  3.0%, -5.6%
O=c1ccccn1Cc1ccccc1F
  -26.9%, -5.8%
COc1ccc(C(=O)NCCc2cn3ccccc3n2)cc1
  -12.5%, 2.2%
Cc1cc(C)c(NC(=O)CSCc2nc3sc(C)c(C)c3c(=O)[nH]2)c(Cl)c1
  ., 1.7%
COc1cccc(CNC(=O)CCC2CCCN(C(=O)c3cc(C4CC4)[nH]n3)C2)c1 (stereo not drawn)
  -22.3%, -6.5%
